KCNQ2 block: KCNQ2 potassium channel inhibitors, primary screen, cell-based, CHO-K1, FluxOR thallium flux, B-score (AID 2156); O88943; 20 min; active compounds read low; only compounds with negative scores are shown here; some inactives read as strong as hits; B-score at 10 µM; hit rate 1.1% among 310,000;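 active = fluorescence ratio B-score at most minus 3 library SDs, with starting brightness B-score within 2 library SDs, cut at about -5.5 in these data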
Target sequence (O88943 whole entry, looked up): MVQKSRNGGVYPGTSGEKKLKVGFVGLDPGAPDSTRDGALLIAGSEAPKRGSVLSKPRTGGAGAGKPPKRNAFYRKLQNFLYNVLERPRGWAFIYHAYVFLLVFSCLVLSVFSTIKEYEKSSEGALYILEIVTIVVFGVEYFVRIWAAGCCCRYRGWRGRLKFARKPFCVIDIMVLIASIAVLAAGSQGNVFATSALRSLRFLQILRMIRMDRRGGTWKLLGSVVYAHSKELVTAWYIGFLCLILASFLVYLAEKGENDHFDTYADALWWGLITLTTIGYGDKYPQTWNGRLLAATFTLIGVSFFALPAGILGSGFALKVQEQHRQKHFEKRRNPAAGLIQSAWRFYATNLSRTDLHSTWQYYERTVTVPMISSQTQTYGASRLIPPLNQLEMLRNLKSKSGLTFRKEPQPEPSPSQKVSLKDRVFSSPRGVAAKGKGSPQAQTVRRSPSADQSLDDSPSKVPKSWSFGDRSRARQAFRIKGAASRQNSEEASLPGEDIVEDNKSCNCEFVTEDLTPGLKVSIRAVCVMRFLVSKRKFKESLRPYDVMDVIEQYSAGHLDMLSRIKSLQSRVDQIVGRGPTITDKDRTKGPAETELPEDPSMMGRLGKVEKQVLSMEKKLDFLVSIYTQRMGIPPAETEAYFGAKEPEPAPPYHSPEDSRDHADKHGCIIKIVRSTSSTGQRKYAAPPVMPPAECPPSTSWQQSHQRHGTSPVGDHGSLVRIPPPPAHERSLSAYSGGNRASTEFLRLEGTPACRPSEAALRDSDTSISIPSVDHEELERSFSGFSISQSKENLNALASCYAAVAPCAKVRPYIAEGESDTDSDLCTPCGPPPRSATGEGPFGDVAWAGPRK
KCNQ2 block baseline: recorded beside KCNQ2 block, whose call it bears; B-score; measured here: initial fluorescence intensity artifact check;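 brightness before thallium and not channel activity; 0 = typical well and far values either way flag optical interference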
Starred values were filed as active, the others as inactive; i = inactive. A portion of the library (hit frequency here may not be typical).

KCNQ2 block	KCNQ2 block baseline	Molecule
i	-0.2	Cc1ccc(C(=O)Nc2ccc(C)c(S(=O)(=O)N3CCOCC3)c2)c(C)c1
i	0.92	CN(/N=C/c1ccncc1)c1cnn(-c2ccc(F)c(Cl)c2)c(=O)c1Cl
i	-0.37	CCC(C)(C)n1nnnc1CN(Cc1cc2cc(OC)ccc2[nH]c1=O)C1CCCC1
i	-2.53	CCOc1ccc2[nH]c(=O)c(CN(CCO)C(=O)c3ccccc3F)cc2c1
-6.02*	-1.24*	Cc1cccc(C(=O)Nc2ccc(C(=O)/C=C/c3ccncc3)cc2)c1
i	0.57	Cc1ccc(C)c(N2CCN(S(=O)(=O)c3ccc4c(c3)CC(C)N4C(=O)C3CC3)CC2)c1 (stereo not given)
i	0.6	Cc1cc(CNC(=O)C(C)n2nc(C)c([N+](=O)[O-])c2C)c2ccccc2n1 (stereo not given)
i	0.18	O=C1CC(c2ccc3c(c2)OCCO3)Oc2ccccc21 (stereo not given)
i	2.35	O=C(CCn1ccnc1)Nc1cc(Cl)ccc1O
i	-0.52	COc1ccc(/C=N/NC(=S)Nc2ccccc2)cc1COc1ccc(Br)cc1
i	-0.03	COc1cc(COc2ccc3c(C)c(Cc4ccccc4)c(=O)oc3c2C)cc(OC)c1OC
i	2.05	Cc1ccc2cc3cc(C(=O)N4CCCCCC4)oc3nc2c1
i	-0.43	COc1ccc(S(=O)(=O)N(CC(=O)N/N=C/c2cccs2)c2cc(C)cc(C)c2)cc1OC
i	-2.07	O=C(Nc1cccc([N+](=O)[O-])c1)C1C2/C=C\CCCCC21 (stereo not given)
i	-2.18	CCCOc1ccc(C(=O)OCC(=O)c2c(N)n(C)c(=O)n(C)c2=O)cc1OCC
i	-0.8	CCN(CC)S(=O)(=O)c1ccc(Cc2ncc(C(F)(F)F)cc2Cl)s1
i	1.66	Cc1ccc(C)c(N2CCN(C(=O)c3cc(S(=O)(=O)N4CCOCC4)ccc3F)CC2)c1
i	0.65	O=C(c1sccc1Br)N1CCN(Cc2ccc3c(c2)OCO3)CC1
i	1.27	Cc1nc2cc(NC(=O)N3CCCCC3)ccc2n1C
i	0.03	O=C(Oc1ccccc1N1C(=O)CCC1=O)c1ccco1

By substructure: the compounds so far containing two or more sulfur atoms (2)
KCNQ2 block	KCNQ2 block baseline	Molecule
i	-0.43	COc1ccc(S(=O)(=O)N(CC(=O)N/N=C/c2cccs2)c2cc(C)cc(C)c2)cc1OC
i	-0.8	CCN(CC)S(=O)(=O)c1ccc(Cc2ncc(C(F)(F)F)cc2Cl)s1

(more compounds)
KCNQ2 block	KCNQ2 block baseline	Molecule
i	0.04	COc1cc(/C=N/NC(=O)c2c(C)nnn2-c2nonc2N)ccc1O
i	-1.95	CC(C(=O)Nc1cccc(S(=O)(=O)N2CCOCC2)c1)N1CCN(c2ccc(F)cc2)CC1 (stereo not given)
i	1.36	CN(C)c1nc2ccccc2n(C)c1=O
i	0.16	Cc1noc(C)c1COC(=O)c1cc(F)c(F)cc1Cl
i	-2.11	O=C(c1cnn2cccnc12)N1CCN(Cc2ccc3c(c2)OCO3)CC1
i	0.26	CC(C(=O)c1ccc(Br)cc1)[n+]1cccc(NC(=O)c2ccccc2)c1 (stereo not given)
i	0.78	Cc1ccccc1COc1ccc(-c2nnn(CC(=O)O)n2)cc1
i	0.54	C=CCn1c(SCc2nc3sc(C(=O)O)c(C)c3c(=O)[nH]2)nnc1-c1ccc(F)cc1
i	0.61	O=C(Oc1ccc(Cl)cc1)N1CCOCC1
i	0.09	COc1ccccc1NS(=O)(=O)c1ccc(-c2cnc(C3CC3)o2)cc1

A section from the list above, for reference:
KCNQ2 block	KCNQ2 block baseline	Molecule
i	0.16	Cc1noc(C)c1COC(=O)c1cc(F)c(F)cc1Cl
i	-2.11	O=C(c1cnn2cccnc12)N1CCN(Cc2ccc3c(c2)OCO3)CC1
i	0.26	CC(C(=O)c1ccc(Br)cc1)[n+]1cccc(NC(=O)c2ccccc2)c1 (stereo not given)
i	0.78	Cc1ccccc1COc1ccc(-c2nnn(CC(=O)O)n2)cc1
i	0.54	C=CCn1c(SCc2nc3sc(C(=O)O)c(C)c3c(=O)[nH]2)nnc1-c1ccc(F)cc1

Next section:
KCNQ2 block	KCNQ2 block baseline	Molecule
i	0.65	COc1ccc(CCNC(=O)CSc2nc3ncccc3[nH]2)c(OC)c1
i	0.3	CCOC(=O)C(C)/C(C)=N/NC(N)=S (stereo not given)
i	-0.71	CCN(CC)S(=O)(=O)c1ccc(N2CCCC2)c(NC(=O)c2ccccc2OC)c1
i	2	N#C/C(=C(/O)CSc1ccccc1C(=O)O)c1nc2ccccc2s1
i	0.97	O=C(Cn1[nH]c(=O)c2ccccc2c1=O)Nc1cccnc1
i	0.01	Cc1cc(C)cc(NC(=O)CSc2ccc(-c3cccs3)nn2)c1
i	-0.18	COC(=O)c1[nH]c2ccccc2c1NC(=O)CNC1CCCCC1
i	0.98	Cc1cccc(NS(=O)(=O)c2cc3c4c(c2)CCC(=O)N4CCC3)c1
i	-1.3	Cc1ccc(C(C(=O)NC2CCCCC2)N2CCN(C(=O)c3ccco3)CC2)cc1 (stereo not given)
i	-1.29	Cc1ccc(C(=O)N2CCC(n3nccc3NC(=O)Nc3cccc(F)c3)CC2)cn1

Sorted by heavy-atom count (rising): part of the list above.
KCNQ2 block	KCNQ2 block baseline	Molecule
i	-0.18	COC(=O)c1[nH]c2ccccc2c1NC(=O)CNC1CCCCC1
i	-2.11	O=C(c1cnn2cccnc12)N1CCN(Cc2ccc3c(c2)OCO3)CC1
i	-0.37	CCC(C)(C)n1nnnc1CN(Cc1cc2cc(OC)ccc2[nH]c1=O)C1CCCC1

Next part:
KCNQ2 block	KCNQ2 block baseline	Molecule
i	-0.06	CC(C)N(Cc1ccccc1)C(=O)C1CCN(c2ncnc3c2nc2n3CCCCC2)CC1
i	-0.79	COCCn1cc(C(=O)NCCCOC(C)C)c2c3ccccc3n(C)c2c1=O
i	-0.63	COC(=O)/C=C1\C(=O)N(c2nc3ccccc3s2)C(=S)N1c1ccc(F)cc1
i	-0.08	C#CCOc1ccc(/C=C2/C(=O)ON=C2C)cc1Br
i	-1.18	Cc1ccc2cc(C(c3nnnn3C(C)(C)C)N3CCCCCC3)c(=O)[nH]c2c1 (stereo not given)
i	0.24	O=c1[nH]c(N/N=C/c2ccc(O)cc2)nc2ccccc12
i	-0.44	CN(C(=O)CCCN1CCCC1=O)C1CCCN(Cc2ccccc2F)C1 (stereo not given)
i	-1.79	CC(C)CCN1CCN(Cc2ccon2)CC1CCO (stereo not given)
i	-0.48	CCN(CC)CCCNC(=O)C1CCC(CNS(=O)(=O)c2ccc(Cl)cc2)CC1 (stereo not given)
i	-2.45	Cc1cnc(NC(=O)CSc2nc3ccccc3s2)s1
i	1.23	CN(C)CCOc1nc(-c2ccccc2)nc2c1oc1ccccc12
i	-1.5	COc1cccc(NC(=O)CN(C)C(=O)c2ccccc2CCc2ccccc2)c1
i	0.46	Cc1ccc(S(=O)(=O)N2CCCCC2)cc1C(=O)N(C)CC(=O)Nc1cccc(F)c1
i	2.33	COCCNCCCOc1ccc(C)cc1Br
i	-1.82	O=C(c1cccc(C(F)(F)F)c1)C1CCCN(C(=O)CCCN2CCCC2=O)C1 (stereo not given)
i	0.38	O=C(CC1CCCCC1)N1CCN(c2ccccn2)CC1
i	0.96	CCCN(CCC)C(=O)Nc1ccc(F)cc1F
i	-0.55	COc1ccc(-c2cc(-c3nnc(COC(=O)C4CC4C)o3)c3ccccc3n2)cc1OC (stereo not given)
i	-0.56	CCOC(=O)C1=C(C)Nc2ccccc2N=C1NC(=O)c1ccc(Cl)c(S(=O)(=O)N2CCCC2)c1
i	0.11	Cc1cc(SCNC(=O)c2ccccc2)nc(C(C)C)n1
i	0.25	c1ccc(-c2nc3nc4ccccc4nc3n2Cc2ccco2)cc1
i	0.43	N#Cc1cc2c(nc1SC1CCCCC1O)CCCC2 (stereo not given)
i	0.37	CCOc1ccc2nc(NC(=O)CSCC(=O)Nc3cc(C)on3)sc2c1
i	-0.73	CCOC(=O)c1c(N)sc(C(O)(C(F)(F)F)C(F)(F)F)c1-c1ccc(OC)cc1OC
i	1.77	COc1cccc(C(=O)NCCS(=O)(=O)NCc2ccc(Cl)cc2)c1
i	-1.58	COc1ccc(/C=C/C(=O)NC2CCN(Cc3ccccc3)CC2)cc1OC
i	0.14	O=C(CCC(=O)c1ccc(Oc2ccccc2)cc1)Nc1cccc(Cl)c1Cl
i	0.17	O=C(Nc1ccc(NC(=O)c2ccc(Cl)c(S(=O)(=O)N3CCOCC3)c2)cc1)c1ccccc1
i	-0.71	COc1ccc(N2CCN(C(=O)C3CCCN3S(=O)(=O)c3cccc4nsnc34)CC2)cc1 (stereo not given)
i	0.3	Cc1cc(C)cc(NC(=O)c2nccnc2C(=O)O)c1
i	-1.29	CC1CCC(NC(=O)c2cc(S(=O)(=O)N(C)C)ccc2N2CCCC2)CC1 (stereo not given)
i	-0.12	Cc1cccc(CCN(Cc2cc3cccc(C)c3[nH]c2=O)C(=O)N2CCOCC2)c1
i	-2	COc1ccc([N+](=O)[O-])cc1NC(=O)c1cncc(Br)c1
i	0.97	Cn1c(=O)c2c(ncn2CC(N)=O)n(C)c1=O
i	0.25	COc1cccc(C2C3=C(CCCC3=O)Nc3[nH]n(-c4ccccc4)c(=O)c32)c1 (stereo not given)
i	0.97	CC(=O)Nc1cc(C)nn1-c1nc2ccccc2s1
i	-0.84	COc1ccc(NC(=O)COC(=O)CC2CC3CCC2C3)c([N+](=O)[O-])c1 (stereo not given)
i	3.45	Cc1ccc(NC(=S)NNC(=O)CSc2nnc(-c3ccc(Cl)cc3)n2C2CCCCC2)cc1
i	1.62	COc1ccc(C(CNC(=O)Cn2[nH]c(=O)c3ccccc3c2=O)N2CCCC2)cc1 (stereo not given)
i	0.21	CCOc1cc2[nH]c(=S)n(Cc3ccc(C(=O)NCCCN4CCOCC4)cc3)c(=O)c2cc1OCC
i	-0.32	CCN(CC)C(=O)Cn1cc(SCC(=O)NC2CCCC2)c2ccccc21
i	0.92	CCS(=O)(=O)n1nc(-c2ccccc2)nc1SCc1ccccc1
i	0.92	CC1(C)Cc2c(sc3nn[nH]c(=O)c23)CO1
i	2.2	COc1ccc(NC2=Nc3cccc4cccc2c34)cc1OC
i	-1.89	Cc1ccc(Cn2nnc3c(=O)[nH]c(C4CCN(S(=O)(=O)Cc5ccccc5)CC4)nc32)cc1
i	0.73	COc1ccc(/C=N/NC(=O)CCn2cnc3ccccc32)cc1
i	-1.61	O=C(Nc1cccc(NC(=O)c2cccs2)c1)c1ccc(Br)cc1
i	-1.6	Cc1cccc(NC(=O)CSCC(=O)N(C)CCOc2ccc(Cl)cc2)c1
i	-1.12	O=C(O)c1ccc(N2N=C(c3ccccc3)CC2c2ccccc2)cc1 (stereo not given)
i	1.68	CC(NC(=O)CSC(=S)N1CCCC1)c1ccc(S(N)(=O)=O)cc1 (stereo not given)

Next part:
KCNQ2 block	KCNQ2 block baseline	Molecule
i	2.11	O=C(CSc1ccc(-c2cccs2)nn1)c1cccs1
i	0.69	CCOC(=O)CSc1nnc(-c2ccccc2NC(=O)c2ccccc2)o1
i	5.72	CC(C)N1CCc2c(sc(NC(=O)c3ccc(S(=O)(=O)N4CCc5ccccc54)cc3)c2C(N)=O)C1
i	-0.39	COC(=O)C1CCN(C(=O)Cc2ccc(C)cc2)CC1
i	-1.39	Cc1ccccc1NC(=S)NC1CC2CCC(C1)N2Cc1ccco1 (stereo not given)
-8.12*	-1.09*	CCOC(=O)/C(=C\c1ccccc1)C(=O)c1cc(C(C)=O)c(Nc2ccccc2)s1
i	-0.06	COc1ccc(CNc2ccccn2)c(O)c1
i	0.18	COc1ccccc1C(=O)NCCC(=O)N1CC(=O)Nc2ccccc21
i	-0.43	COc1cccc(C2Nc3ccccc3C(=O)N2Cc2ccccc2)c1 (stereo not given)
i	-1.02	O=C(CSc1nnc(C2CC2)n1Cc1ccccc1)c1cc2ccccc2o1
i	0.03	O=C(Nc1ccc(Br)c2cccnc12)c1ccc(Cn2cc(Cl)cn2)o1
i	-2.31	COc1ccc(OC)c(NC(=O)CCC(=O)Oc2ccc(C)cc2)c1
i	-1.84	COc1ccc(S(=O)(=O)N(CCc2ccccc2)CC(=O)N2CCOCC2)cc1
i	1.02	O=C(CN1CCN(S(=O)(=O)c2ccc(F)cc2)CC1)N1CCOCC1
i	-0.3	CCC(=O)Nc1cc2nn(-c3ccc(C)cc3)nc2cc1C
i	1.33	COc1ccc(F)cc1CN1CCN(c2ncnc3scc(-c4ccccc4)c23)CC1
i	-0.91	CCc1nn(CC(=O)N2CCN(c3ccc(OC)cc3)CC2)c(=O)c2cc3occc3n12
i	-0.56	Cc1c(Cl)ccc2sc(NC(=O)C3CC3)nc12
i	1	CC(NC(=O)Cc1ccccc1)c1nc2ccccc2[nH]1 (stereo not given)
i	0.72	Cc1[nH]c2ccccc2c1C(=O)COC(=O)c1c(-c2ccccc2)noc1C
i	-1.47	CCOc1cccc(CN2CCCC(N3CCc4cc(OC)c(OC)cc4C3)C2)c1O (stereo not given)
i	-0.73	Oc1[nH]c2ccccc2c1N=Nc1ccc(C(F)(F)F)cn1
i	-0.92	Cc1ccc(Nc2nc(-c3ccc(O)cc3O)cs2)nc1
i	-0.41	O=P(O)(CP(=O)(c1ccccc1)c1ccccc1)c1ccccc1
i	-1.01	Cc1c(C(=O)c2ccc(Cl)cc2[N+](=O)[O-])c2ccccn2c1CCC#N
i	1.09	CCc1n(CC(O)COCC2CC=CCC2)c2ccccc2[n+]1C (stereo not given)
i	0.92	CC(C)COc1cccc(-c2cc(C(=O)Nc3ccon3)c3ccccc3n2)c1
i	4.12	COc1ccc2nc(SCC(=O)NC(C)C)[nH]c2c1
i	0.25	CCCCN(C)CCCNC(=O)c1cn(CC)c2ccc(S(=O)(=O)N3CCc4ccccc4C3)cc2c1=O

Assay outcomes from PubChem.
